Bioassay records: PubChem, National Center for Advancing Translational Sciences (NCATS)
PMP22 txn prim: PMP22 gene transcription modulation; S16 Pmp22-F2sN Schwann cells (luciferase reporters placed in the Pmp22 gene), FLuc/NLuc coincidence luminescence, 24 h; Potency, µM (doses to about 57.5 µM), for the others: at the highest dose activity change, negative = inhibition, usual class: inhibitors; 43,000 compounds, 2% hits; active = clear falling dose curves in both reporters; inconclusive = both reporters move, but less clearly or upward; inactive = either reporter flat; the % is the NLuc reporter signal; further: on the % scale 0 is the no-effect control and ±100 the full control effect; some results filed as inactive show a strong effect at the top dose
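Schwann cells carrying the coincidence reporter were exposed to library compounds for 24 h at 37C, then lysed and read for FLuc and, after quenching, NLuc luminescence on a CCD imager.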
HTT promoter inh: HTT promoter inhibition; HEK293 HTT promoter firefly luciferase reporter (activity 0% = vehicle and -100% = no light), 24 h; Potency, µM (titrated, usually from 57.5 µM), inactives show at the highest dose activity change, negative = inhibition, hits mostly inhibitors; 48,000 compounds, 0.93% hits; active means well fitted inhibition curve with a large enough effect; inconclusive means small, poorly fitted or top-dose-only effect; inactive means no such curve, though single readings can be large or run the other way; further: nearly all actives have a fitted effect of over 50% in size
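HEK293 cells carrying firefly luciferase reporters were seeded at 2,500 per well in Opti-MEM and cultured for 24 h. They were then treated with compounds at up to 57.5 uM final for 24 h at 37 degrees C before Dual-Glo luminescence readout.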
* = called active by the depositor; ? = inconclusive; . = no result given; [ ] = dose if it differs, or a comment. Potency means the concentration at half of the fitted maximal effect.

SMILES	PMP22 txn prim	HTT promoter inh
COc1cccc(CNC(=O)Nc2cc(C(=O)NCc3cccc(F)c3)ccc2N2CCCC2)c1	23.6%	?
Cc1cc(C)c(NC(=O)c2ncoc2-c2ccco2)c(C)c1	-74.4%	-13.4%
Cc1ccc(CCNC(=O)CCSCc2ccccc2Cl)cc1	6.1%	-3.1%
Cc1ccc(CN(C(=O)c2ccccc2)c2ccccn2)o1	-6.3%	-11.4%
CCOc1cc(C(=O)Nc2ccc(-c3nc4ncccc4o3)cc2C)cc(OCC)c1OCC	-16.7%	-15.6%
COc1ccccc1-c1c(C)nn2c(N3CCN(c4ccccc4)CC3)cc(C)nc12	27.8%	-13.9%
CCC(C)OC(=O)/C(C#N)=C/c1ccc(-c2ccc(Br)cc2)o1 (centres undefined)	6.6%	1.3%
CCc1ccc(CNC(=O)c2cc3c(s2)-c2ccccc2OC3)cc1	?	-17.9%
Cc1ccc(CN2C(=O)C(O)(CC(=O)c3ccc(C)cc3)c3ccccc32)cc1 (centres undefined)	7.61µM*	-19.8%
Cc1nc2ccn(Cc3ccccc3)c(=O)c2cc1C(=O)Nc1ccc(F)cc1Cl	7.4%	-7.6%
O=C(NCc1ccccc1)c1ccc2c(c1)N(Cc1ccccc1)C(=O)c1ccccc1S2(=O)=O	-1.6%	-14.9%
O=C(COC(=O)C(Cc1c[nH]c2ccccc12)NC(=O)c1ccc(Cl)cc1)c1ccc(Cl)cc1 (centres undefined)	4.1%	-25.1%
CC1CCC(NC(=O)c2ccc(CS(=O)(=O)c3c(Cl)cccc3Cl)o2)CC1 (centres undefined)	-1.3%	-28.7%
CC(=O)c1ccc(N2CCN(c3ncnc4c3c(-c3ccccc3)cn4-c3cccc(C)c3)CC2)cc1	1.4%	-21.1%
O=C(Cn1ncc2ccsc2c1=O)N1CCN(c2ccc(F)cc2)CC1	-20.0%	-13.8%

Part of the list above, with values under each structure.
Results follow in this order: PMP22 txn prim, HTT promoter inh
Cc1ccc(CCNC(=O)CCSCc2ccccc2Cl)cc1
→ 6.1%, -3.1%
Cc1cc(C)c(NC(=O)c2ncoc2-c2ccco2)c(C)c1
→ -74.4%, -13.4%

(cont.)
SMILES	PMP22 txn prim	HTT promoter inh
O=C(Nc1ccc(Cl)cc1)c1cc2c(-c3ccccc3)nn(-c3ccccc3)c2s1	?	-3.1%
COc1ccc(-c2nc3scc(CCNS(=O)(=O)c4ccc5c(c4)OCCO5)n3n2)cc1	-25.4%	-22.0%
CCc1ccc(Cn2c(CNS(=O)(=O)c3ccc(F)c(Cl)c3)nc3cccnc32)cc1	-30.3%	-14.0%
Cc1cc(C)c2c(NC(=O)c3ccccc3)c(C(=O)Nc3ccc(F)cc3)sc2n1	-17.6%	3.4%
Cc1oc(-c2ccc(C(=O)NCc3ccc(Cl)cc3)cc2)nc1CS(=O)(=O)c1ccccc1	-12.7%	?
Cc1ccc(-c2nn3c(=O)cc(CN4CCN(C(=O)c5ccc(C(C)(C)C)cc5)CC4)nc3s2)cc1	29.6%	-20.9%
Cc1ccc(NC(=O)N2CCC(CN3CCC(C)CC3)CC2)cc1F	16.1%	14.7%
Clc1ccccc1Cc1cn2cc(-c3ccccc3)nc2s1	?	-9.3%
Cc1cccc(CCNC(=O)CCS(=O)(=O)c2cc3c(cc2C)NC(=O)CO3)c1	-8.4%	-7.4%
CCOc1ccc2oc(=O)cc(CN3CCN(C(=O)c4cccc(Cl)c4)CC3)c2c1	-26.6%	-5.8%
COc1ccc(-n2c(/C=C/c3cccc4ccccc34)nc3ccccc3c2=O)cc1Cl	?	?
CCOc1ccc(CNC(=O)c2ccc3c(c2)c(C)c(C)n3C)cc1	-0.6%	3.1%
Cc1cc2oc(C(=O)NCCc3ccc(S(N)(=O)=O)cc3)cc(=O)c2cc1C	5.3%	-21.7%
COc1ccc(-c2noc(CNS(=O)(=O)c3ccc(Br)cc3)n2)cc1OC	-70.8%	-30.0%
COC(=O)c1c(C)sc(-c2c(-c3ccc(OC)c(F)c3)[nH]c3c2c(=O)n(C)c(=O)n3C)c1O	3.0%	17.5%
CCn1c(C(=O)N2CCC(C(=O)NCCc3ccccc3)CC2)cc2sccc21	9.2%	-12.4%
COc1cccc(CNC(=O)C(=O)NCC(c2cccs2)S(=O)(=O)c2ccccc2)c1 (centres undefined)	14.8%	?
O=C(Nc1ccc(Oc2ccccc2)cc1)C1CCN(S(=O)(=O)c2ccccc2)CC1	-7.7%	?
O=C(Cn1c(=O)n(-c2ccc(F)cc2)c(=O)c2sccc21)Nc1cccc(C(F)(F)F)c1	?	-22.3%
Cc1ccc(C)c(N2CCN(CCCNC(=O)Cn3c(-c4cccs4)cc4ccccc43)CC2)c1	13.4µM*	?
CC(C)NC(=O)CC(=O)Nc1ccc2nc3n(c(=O)c2c1)CCCCC3	13.2%	-6.8%
Cc1ccc(CNC(=O)c2cc(S(=O)(=O)N3CCCC(C)C3)cn2C)cc1 (centres undefined)	-6.6%	?
CCc1ccc(C2N3CC4(C)CN2CC(c2ccccc2)(C3)C4=O)cc1 (centres undefined)	?	-12.2%
COc1ccc(-c2nc(CNC(=O)Nc3ccccc3)c(C)o2)c(OC)c1	-3.9%	-13.6%
Cc1cccc(OCC(=O)N(Cc2cccs2)c2ccc(Cl)cc2)c1C	-9.5%	?
Cc1ccc(NC(=O)Cn2ccn(-c3ccc(F)c(F)c3)c(=O)c2=O)cc1C	3.0%	-19.1%
CC(C)n1c(=O)c2oc3ccccc3c2n(CC(=O)Nc2ccccc2Cl)c1=O	-36.5%	1.7%
Cc1nn2c(=O)cc(COC(=O)c3cccs3)nc2s1	8.1%	22.8%
CC(=O)N1CCc2cc(Br)cc(S(=O)(=O)CCC(=O)N3CCN(c4ccc(F)cc4)CC3)c21	-23.5%	-6.2%
COc1ccc(CN(Cc2ccco2)C(=O)c2ccccc2F)cc1	21.1%	-13.4%
COc1ccc(-c2c(-c3ccc(O)cc3O)n[nH]c2C)cc1	.	-28.2%[116 µM]
CNC(=O)C1CCC(Cn2c(=O)c3sccc3n(CC(=O)N3CCC(C)CC3)c2=O)CC1 (centres undefined)	-5.3%	-7.6%
Cc1ccccc1NC(=O)Cn1nc(-c2ccc(F)cc2)c2cnc3ccccc3c21	-15.9%	-1.7%
Cc1cccc(NC(=O)C2CCCN(S(=O)(=O)c3c(C)n[nH]c3C)C2)c1 (centres undefined)	-15.1%	-21.6%
COC(=O)c1cnc(N2CCN(c3ccc(OC)cc3)CC2)c2ccccc12	3.7%	-27.6%
NCCNCCNCCNCCN	.	-8.3%[11.5 µM]
CC(C)c1cnc2c(c1SCc1cccc(F)c1)c(=O)n(C)c(=O)n2C	-22.6%	-23.9%
Cc1cc(C)nc(NC(=NCCc2c[nH]c3ccc(Cl)cc23)NC(=O)c2ccccc2C)n1	?	-24.8%
COc1ccc(Nc2ncc3c(n2)CCN(Cc2ccccc2C)C3)c(OC)c1	-5.2%	-3.1%
O=C(CN1C(=O)C2(SCC(=O)N2c2cccc(Cl)c2)c2ccccc21)NCc1ccccc1 (centres undefined)	1.8%	-27.0%
Cc1cc(C)cc(Nc2cc(-c3ccccc3)nc(C)n2)c1	?	?
Nc1nonc1-c1nc2ccccc2n1Cc1c(Cl)cccc1Cl	-38.4%	?
NC(=O)c1nc(Nc2ccccc2)sc1NC(=O)c1c(F)cccc1F	-20.9%	13.8%
CC(=O)Nc1c(C)nn(-c2ccccc2)c1N1CCC(C(=O)Nc2cc(F)ccc2F)CC1	25.2%	3.2%
COC(=O)CN1C(C(=O)c2ccccc2)=C(OC(=O)c2ccccc2)c2ccccc2S1(=O)=O	-25.9%	-10.9%
COC(=O)c1c(NC(=O)c2nc(SCc3ccc(F)cc3)ncc2Cl)sc2c1CCCC2	14.0%	-21.2%
COCCCNC(=O)CN1C(=O)COc2ccc(S(=O)(=O)N3CCOCC3)cc21	3.1%	-10.6%
N#Cc1ccccc1Cn1c(=O)n(CCCC(=O)NCc2ccc3c(c2)OCO3)c(=O)c2sccc21	?	-20.2%
O=C(NCc1ccccc1Cl)NCc1noc2ccccc12	-3.4%	29.5%
CCc1ccccc1NC(=O)Cn1nc(N2CCN(c3ccccc3OC)CC2)ccc1=O	-1.3%	-4.4%
COc1ccc(N(CC(=O)NCCc2ccccc2)S(=O)(=O)c2c(C)nn(C)c2C)cc1	?	-11.3%
CCOC(=O)c1cc2c(=O)n3ccccc3nc2n(Cc2ccco2)c1=NC(=O)c1ccc(F)cc1	?	-14.2%
CCOC(=O)c1cc2c(=O)n3ccccc3nc2n(C(C)C)c1=NC(=O)C(C)(C)Oc1ccc(Cl)cc1	1.6%	-5.3%
CCN(CC)C(=O)c1sc2c(c1C)c(=O)n(Cc1ccccc1)c(=O)n2Cc1cc(C)ccc1C	?	?
CCOC(=O)c1ccc(N2C(=O)c3n[nH]c(-c4ccco4)c3C2c2ccc(F)cc2)cc1 (centres undefined)	?	?
O=C(Nc1ccc(Br)cc1F)c1cc(S(=O)(=O)NC2CCCCC2)ccc1F	-17.2%	?
CC(C)(C)OC(=O)N1CCC(c2c(C(=O)NCCN3CCC(Cc4ccccc4)CC3)cnn2-c2ccccc2)CC1	?	-17.4%
O=C(Nc1c(C(=O)N2CCN(c3ccccc3F)CC2)oc2ccccc12)c1cccc(F)c1	?	-1.5%
Cc1cccc(OC(=O)c2cc(-c3ccc4c(c3)OCCO4)on2)c1	-12.7%	8.7%
CCCSCCCNC(=O)c1ccc2c(c1)nc1n2CCCCC1	-6.5%	21.2%

For reference, part of the list above.
SMILES	PMP22 txn prim	HTT promoter inh
CCOC(=O)c1ccc(N2C(=O)c3n[nH]c(-c4ccco4)c3C2c2ccc(F)cc2)cc1 (centres undefined)	?	?
O=C(Nc1ccc(Br)cc1F)c1cc(S(=O)(=O)NC2CCCCC2)ccc1F	-17.2%	?
CC(C)(C)OC(=O)N1CCC(c2c(C(=O)NCCN3CCC(Cc4ccccc4)CC3)cnn2-c2ccccc2)CC1	?	-17.4%
O=C(Nc1c(C(=O)N2CCN(c3ccccc3F)CC2)oc2ccccc12)c1cccc(F)c1	?	-1.5%
Cc1cccc(OC(=O)c2cc(-c3ccc4c(c3)OCCO4)on2)c1	-12.7%	8.7%
CCCSCCCNC(=O)c1ccc2c(c1)nc1n2CCCCC1	-6.5%	21.2%

A different layout for part of the listing above:
The line under a structure holds: PMP22 txn prim | HTT promoter inh
COCCCNC(=O)CN1C(=O)COc2ccc(S(=O)(=O)N3CCOCC3)cc21
  3.1% | -10.6%
CCOC(=O)c1cc2c(=O)n3ccccc3nc2n(Cc2ccco2)c1=NC(=O)c1ccc(F)cc1
  ? | -14.2%
CCN(CC)C(=O)c1sc2c(c1C)c(=O)n(Cc1ccccc1)c(=O)n2Cc1cc(C)ccc1C
  ? | ?

Later entries
SMILES	PMP22 txn prim	HTT promoter inh
COc1ccc(NC(=O)Cn2c(=O)n(CCC(=O)NCC3CCCO3)c(=O)c3cc(OC)c(OC)cc32)cc1 (centres undefined)	-5.0%	-16.1%
CCOC(=O)N1CCN(CCC(=O)Nc2cc(C)ccc2C)CC1	-8.6%	-15.7%
O=C(OCc1ccccc1)c1ccccc1	.	25.5%
NC(=O)c1ccc2[nH]ccc2c1	.	-3.4%
CCOC(=O)Cn1nc(-c2ccccc2)c2cnc3ccc(OCC)cc3c21	-10.3%	-15.7%
CCCN(CCC)C(=O)Cn1c(=O)n(-c2cccc(C(F)(F)F)c2)c(=O)c2c(C)c(C)sc21	?	-7.7%
CCc1ccc(NC(=O)C2CCN(S(=O)(=O)c3c(C)noc3/C=C/c3cccs3)CC2)cc1	-14.2%	?
COc1cc(OC)cc(C(=O)Nc2cc(-c3nc4cccnc4s3)ccc2C)c1	?	-15.2%
CCOC(=O)CSc1nc2c(sc3ccccc32)c(=O)n1CCc1ccccc1	-36.3%	-9.3%
Cc1ccc(-n2ncc3c(N4CCN(Cc5ccccc5)CC4)ncnc32)cc1	?	-14.8%
O=C(NCCn1cc(SCc2ccccc2)c2ccccc21)c1cccs1	?	?
O=C(/C=C/c1cn(CC(O)CN2CCc3ccccc32)c2ccccc12)c1ccc(Br)cc1 (centres undefined)	?	-23.8%
O=C1CC(c2nc3ccccc3[nH]2)CN1c1cccc(Cl)c1 (centres undefined)	-153.0%	-19.2%
O=C(CSc1nc2c([nH]c3ccccc32)c(=O)n1-c1ccc(F)cc1)NCc1ccco1	-31.4%	-20.9%
O=C(NC1CC1)c1cccc(-c2ccc3c(NC(=O)C4CC4)n[nH]c3c2)c1	.	?
COc1ccc(C(=O)NC2CC(=O)N(c3ccc4c(c3)OCCO4)C2)cc1 (centres undefined)	-3.9%	-7.8%
O=C(CSc1ccnc(=O)[nH]1)NCc1ccc(F)cc1	1.7%	-5.8%
Cc1ccc(CNC(=O)c2ccc(CSCc3ccccc3C)o2)cc1	-16.8%	-16.3%
COc1cc2c(NC3CCN(C(C)C)CC3)nc(C3CCCCC3)nc2cc1OCCCN1CCCC1	.	-23.4%
O=C1CCCc2cc(S(=O)(=O)NCC3CCC(C(=O)Nc4ccc(Cl)cc4)CC3)ccc2N1 (centres undefined)	?	?
CCC(C)NC(=O)c1c2c(nc3ccccc13)C(=O)N(C1CCCCC1)C2 (centres undefined)	-11.5%	-8.3%
O=C(CCC1N=C2c3ccccc3N=C(SCC(=O)Nc3cccc(Cl)c3)N2C1=O)NCc1ccco1 (centres undefined)	-16.2%	-5.3%
Cc1cccc(C)c1NC(=O)c1sc(-n2nc(C)c(Cc3ccccc3)c2C)nc1C	?	-2.1%
Cc1ccc(-n2nnc(-c3nsc(NC(=O)c4ccc(C)c(C)c4)n3)c2C)cc1	-1.1%	-29.6%
